From PubChem BioAssay
HIV Env fusion: inhibitors of HIV-1 Env-driven cell-cell fusion, primary screen, HeLa-JRFL effector, CEM21 target cells, luciferase. inhibition, % at 12.3 µM. 360,000 compounds, 1.1% hits;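 active = mean replicate inhibition score of at least 50 and every replicate individually at or above 50; inconclusive = only one of the two criteria met; inactive = mean below 50 and not all replicates reaching 50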;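 note: 0% = plate neutral controls and 100% = maraviroc near 300 nM; one replicate is shown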
PABP FP inh: PABP poly(A) RNA binding inhibitors, primary screen, biochemical, fluorescence polarization, uHTS; Polyadenylate-binding protein 1 (Homo sapiens), P11940; inhibition, % at 35 µM; 290,000 compounds, 1% hits;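 active = 50% or more with normal probe brightness, or confirmed in later tests; inconclusive = above 50% with abnormal brightness, or retests that disagree; inactive = below 50% or failed in later tests; about a fifth of its hits are not listed in these tables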;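 note: calls also rest on retests at 20 µM and on dose response follow-up; controls were probe without protein and protein plus probe with vehicle; some compounds called inactive have numbers as strong as hits; many hits fall short of the cut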
Target sequence (P11940 whole entry, looked up): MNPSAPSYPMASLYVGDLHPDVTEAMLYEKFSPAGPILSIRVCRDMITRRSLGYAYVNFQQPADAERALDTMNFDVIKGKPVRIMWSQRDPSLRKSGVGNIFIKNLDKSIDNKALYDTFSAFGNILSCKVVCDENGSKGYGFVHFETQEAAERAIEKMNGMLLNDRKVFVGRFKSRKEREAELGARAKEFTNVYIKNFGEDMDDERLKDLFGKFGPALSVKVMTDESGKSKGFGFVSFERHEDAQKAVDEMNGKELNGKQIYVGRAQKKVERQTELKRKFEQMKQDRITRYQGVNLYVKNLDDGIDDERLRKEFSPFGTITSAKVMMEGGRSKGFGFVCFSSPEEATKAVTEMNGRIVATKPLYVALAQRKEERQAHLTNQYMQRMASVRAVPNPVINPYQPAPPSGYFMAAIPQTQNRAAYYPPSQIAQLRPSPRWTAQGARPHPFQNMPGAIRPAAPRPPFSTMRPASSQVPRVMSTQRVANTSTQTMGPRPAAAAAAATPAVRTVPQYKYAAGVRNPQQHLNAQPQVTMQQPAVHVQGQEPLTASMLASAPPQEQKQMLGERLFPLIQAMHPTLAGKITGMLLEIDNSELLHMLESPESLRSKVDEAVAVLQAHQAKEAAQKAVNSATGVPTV
CSC inhib: cancer stem cell viability inhibitors, primary screen, luminescence; AID 2717, 2010; 300,000 compounds, 1.1% hits; inhibition, % at 7.5 µM; cancer stem cell-like cells viability;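 active = mean at 75% or more and at least half the replicates too; inconclusive = mean and replicates disagree; tested in HMLE shEcad cells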;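 note: 0% = median of negative and 100% = median of positive control wells; the first replicate is given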
UUG fidelity: modulators of yeast start codon fidelity, primary screen, whole organism, S. cerevisiae, single point, plate reader | S. cerevisiae UUG-firefly luciferase reporter, luminescence/redox ratio | activity score, % at 18.7 µM | 350,000 compounds, 0.13% hits;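 active = replicate mean at a twofold rise or more, about +100% in these data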;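 note: firefly luciferase made from a UUG start codon reports start codon fidelity; reporter light over untreated wells divided by growth signal over untreated wells; some hits fall short of that in this replicate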
MT1-MMP act inh: blockers of MT1-MMP proenzyme processing, primary screen, HT1080 RFP-PRO-GFP cells, GFP/RFP fluorescence | Matrix metalloproteinase-14 (Homo sapiens), P50281 | GFP/RFP ratio fluorescence, overnight; percent of plate control window, DMSO zero | GFP/RFP ratio change, % at 20 µM | 360,000 compounds, 0.061% hits;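 active = GFP/RFP ratio change of at least 30% with cell ATP level not reduced by more than half and red fluorescence within 50% of control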; note: strong numbers were not always called active
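Material: RFP-PRO-GFP reporter HT1080 cells. Dosing: single-point 20 µM compound, 1% DMSO. Controls: DMSO and RFP-L50D-GFP cell wells. Timing: cells overnight before dosing, compound overnight, 37 °C, 5% CO2. Measure: GFP/RFP fluorescence ratio.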
eIF4H inh: human eIF4H binding inhibitors, primary screen, translation initiation inhibitor project, biochemical, uHTS, fluorescence polarization; 290,000 compounds, 0.94% hits; inhibition, % at 35 µM; eIF4H fluorescence polarization binding assay;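 active = 50% or more with normal probe brightness, or confirmed in later tests; inconclusive = above 50% with abnormal brightness, or retests that disagree; inactive = below 50% or failed in later tests; about a fifth of its hits are not listed in these tables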;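 note: calls also rest on retests at 20 µM and on dose response follow-up; 0% = protein and probe with vehicle and 100% = probe without protein; strong numbers were not always called active; many hits fall short of the cut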
Rce1 inhib: yeast Rce1p protease inhibitors, primary screen, biochemical, fluorescence, cell-free homogeneous. CAAX prenyl protease 2 (Saccharomyces cerevisiae (strain ATCC 204508 / S288c)), Q03530. yeast membranes, quenched prenylated peptide cleavage fluorescence. calls only. 290,000 compounds, 0.27% hits. AID 2563, 2010;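 active = fall in fluorescence gain of 50% or more versus controls, with final raw signal at or below 3038400; inconclusive = same 50% fall but final raw signal above 3038400; inactive = fall in fluorescence gain under 50%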;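 note: plate controls were neutral control wells for no effect and wells lacking membranes for full effect; tested at 10 µM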
Target sequence (Q03530 whole entry, looked up): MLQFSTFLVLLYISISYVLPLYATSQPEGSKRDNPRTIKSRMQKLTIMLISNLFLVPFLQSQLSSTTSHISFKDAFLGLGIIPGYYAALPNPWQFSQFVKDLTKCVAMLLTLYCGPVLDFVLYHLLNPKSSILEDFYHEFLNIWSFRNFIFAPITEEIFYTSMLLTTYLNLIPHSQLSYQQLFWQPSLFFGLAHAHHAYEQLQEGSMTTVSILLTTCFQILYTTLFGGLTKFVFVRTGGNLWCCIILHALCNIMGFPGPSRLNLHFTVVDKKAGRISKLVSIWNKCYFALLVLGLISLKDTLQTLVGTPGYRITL
eIF4H inh retest: also measured in eIF4H inh; calls as there; inhibition, %; compound at 20 µM; confirmation average;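 mean of two retest wells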
PABP FP inh retest: recorded beside PABP FP inh, whose call it bears; inhibition, %; compound at 20 µM; confirmation repeats;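 mean of two retest wells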
MT1-MMP act inh RFP: also measured in MT1-MMP act inh; calls as there; RFP signal change, %; measured here: RFP expression control read;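 0 = vehicle wells; hits needed this value within 50% of zero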
Starred values were filed as active, the others as inactive; i = inactive; ? = inconclusive; . = no result given; & = joins results of further samples. A portion of the library; rates above refer to the full screens.

SMILES	HIV Env fusion	PABP FP inh	CSC inhib	UUG fidelity	MT1-MMP act inh	MT1-MMP act inh RFP	eIF4H inh	Rce1 inhib	others
C=CCNc1cnn(-c2ccc(C)cc2)c(=O)c1Cl	.	-6	-7	-13	5	0	-2	i
O=[N+]([O-])c1cc([N+](=O)[O-])c(Oc2cccc3ccccc23)cc1NN1CCCCC1	46	.	.	-14	-6	-1	.	.
Cc1cc(C)cc(NC(=O)c2oc3ccccc3c2COc2ccccc2)c1	.	0	15	.	-2	2	5	i
COc1ccc(NC(=O)c2c(C)cc(=O)oc2C)c(OC)c1	.	3	-19	-2	-2	6	-15	i
CCn1c(SCC(=O)N(C)c2c(N)n(Cc3ccccc3)c(=O)[nH]c2=O)nc2ccccc21	10	-1	-1	2	4	7	3	i
C[C@H](CO)N1C[C@H](C)[C@H](CN(C)Cc2ccncc2)Oc2ccc(NC(=O)Nc3ccc(C(F)(F)F)cc3)cc2CC1=O	-32	.	60	-3	1	-14	.	.
COc1ccc(-c2cc(C(=O)N(C)CCc3ccc(OC)c(OC)c3)c3ccccc3n2)cc1	2	8	-14	-1	1	-4	14	i
C[C@@H]1CN([C@H](C)CO)C(=O)CCCn2nncc2CO[C@@H]1CN(C)C(=O)Nc1ccc(N2CCCCC2)cc1	-11	.	.	-9&2	1	3	.	.
COc1ccc(/C=C2/SC(=S)N(CCCC(=O)Nc3ccc(O)cc3)C2=O)cc1OC	.	44	22	-3	-4	-3	?	i
CCC(CC)C(=O)Nc1cccc(C(=O)Nc2nnc(C)s2)c1	2	-20	-14	.	4	2	3	i
COc1ccc(NC(=O)CN(C)C(=O)C2(c3ccccc3)CCCC2)cc1	-107	.	8	-1	0	-10	.	.
O=S(=O)(c1cccc2nonc12)N1CCCCC1	-2	8	-5	-15	2	2	14	.
C/C(=N/NC(=S)Nc1cccc(C)c1)c1cccc([N+](=O)[O-])c1	-12	10	7	.	5	7	16	i
Cc1ccc(S(=O)(=O)NCCC(=O)NCc2ccc(Cl)cc2)cc1C	7	.	-11	-9	1	-5	.	.
CC(=O)Nc1ccc(S(=O)(=O)N(C)c2ccc(OCCOc3ccccc3F)cc2)cc1	.	.	-20	-9	3	-4	.	.
CC1CCC(NC(=O)C2COc3ccccc3O2)CC1 (stereo unspecified)	-8	.	5	.	1	4	.	i
O=C(CCN1C(=O)C2C3C=CC(C3)C2C1=O)N1CCN(c2ccccn2)CC1 (stereo unspecified)	-57	6	5	-24	-4	0	1	i
O=C(NNC(=O)C1CC2CCC1C2)c1ccccc1 (stereo unspecified)	-6	12	-5	9	0	1	4	i
Nc1[nH]nc2nc(N3CCCC3)nc(-c3ccccc3)c12	18	-2	-11	8	2	-2	5	i
COc1ccc(CCNC(=S)NNC(=O)c2c(Br)c(C)nn2C)cc1OC	35	-4	.	-18	1	3	-10	i
COc1ccc(CNc2ncnc3sccc23)cc1OC	43	4	2	-17	-2	-27	5	i
CC1CC(C)CN(C(=O)Nc2ccccc2F)C1 (stereo unspecified)	3	6	-13	.	0	5	-9	i
CS(=O)(=O)Nc1ccc(-c2ccc3nccn3c2)cc1	?	.	.	-9	-3	2	.	.
Cc1c(/C=N/NC(=O)c2cc(=O)[nH]c(=O)[nH]2)c2ccccn2c1C(=O)c1ccccc1	-11	4	-8	-8	6	3	16	i

Part of the list above in order of heavy-atom count, lowest first.
SMILES	HIV Env fusion	PABP FP inh	CSC inhib	UUG fidelity	MT1-MMP act inh	MT1-MMP act inh RFP	eIF4H inh	Rce1 inhib	others
CC1CC(C)CN(C(=O)Nc2ccccc2F)C1 (stereo unspecified)	3	6	-13	.	0	5	-9	i
CC1CCC(NC(=O)C2COc3ccccc3O2)CC1 (stereo unspecified)	-8	.	5	.	1	4	.	i
Nc1[nH]nc2nc(N3CCCC3)nc(-c3ccccc3)c12	18	-2	-11	8	2	-2	5	i

Going on with the list.
SMILES	HIV Env fusion	PABP FP inh	CSC inhib	UUG fidelity	MT1-MMP act inh	MT1-MMP act inh RFP	eIF4H inh	Rce1 inhib	others
O=C(COC(=O)C1CCC1)Nc1cccc(S(=O)(=O)N2CCOCC2)c1	-6	.	.	.	1	4	.	i
Cc1cc(S(=O)(=O)N2CCCOC2CNC(=O)C(=O)NCc2ccco2)ccc1F (stereo unspecified)	6	10	-9	.	2	6	4	i
COc1ccc(Cc2nnc(SCC(=O)NC3CCCC3)o2)cc1	-13	5	6	-16	1	0	8	i
O=C(Cn1sc2ccccc2c1=O)N1CCN(C(=O)c2ccco2)CC1	-15	-2	-16	4	-2	4	-6	i
COc1cc(-c2ccccc2)nc2ccccc12	.	-10	29	-24	0	-1	-6	i
O=C(N/N=C/c1cccc([N+](=O)[O-])c1)c1nc2ccccc2c(=O)[nH]1	-55	2	0	-23	-1	0	-16	i
Cc1nn(-c2nc3ccccc3s2)c(N)c1Sc1ccc(F)cc1	.	-3	1	-15	-1	1	5	i
COCc1cc(C)nc(SCc2ccccc2)c1C#N	8	5	3	-8	3	-1	5	i
Cn1c(SCC(=O)Nc2sc3c(c2C#N)CCC3)nnc1C1COc2ccccc2O1 (stereo unspecified)	-37	16	-5	1	-3	1	34	i
CC1CCN(C(=O)c2ccccc2NS(=O)(=O)c2ccccc2)CC1	18	-12	-3	-3	-1	3	-2	i
CC1=NN(C(=O)c2ccc(Cn3nc(C)c([N+](=O)[O-])c3C)cc2)C(O)(C(F)(F)F)C1 (stereo unspecified)	15	3	-3	-23	6	1	-5	i
Cc1ccc2[nH]c(=O)c(CN(CCCO)S(=O)(=O)c3c(C)ccc4nsnc34)cc2c1	.	8	11	-7	3	-1	-1	i
Cc1ccc(C(=O)N2CCN(c3ccc(N4CCOCC4)nn3)CC2)cc1	-2	.	-5	.	7	0	.	i
COCCN(CCOC)Cc1c(O)ccc2c1O/C(=C\c1ccc(C)o1)C2=O	3	36	-4	.	-51	2	51*	i	eIF4H inh retest=72*;PABP FP inh retest=40
Cc1cc(CNC(=O)COc2c(F)c(F)cc(F)c2F)c2ccccc2n1	2	1	.	-2	4	0	1	i
CC(=O)Nc1ccc(NC(=S)NC(=O)c2ccc(-c3ccccc3)cc2)cc1	-2	.	1	-15	4	5	.	i
COc1ccccc1NC(=S)N/N=C/c1ccc(O)cc1	-32	16	31	.	0	-1	-4	i
O=C(C1CC(=O)N(C2CCCC2)C1)N1CCN(c2cccc(C(F)(F)F)c2)CC1 (stereo unspecified)	15	.	.	-5	-6	-16	.	.
O=C(NC1CCCCC1)C1CC(=O)N(Cc2ccccc2)C1 (stereo unspecified)	-9	-5	-10	-5	0	1	3	i
N#Cc1ccc(Cl)cc1NC(=O)CNCc1cccs1	1	?	6	2	-4	-2	4	i
CC(C)Oc1ccc(C(CC(=O)O)NC(=O)C2CCCCC2)cc1 (stereo unspecified)	4	9	-12	1	5	3	-4	i
O=C(N/N=C/c1ccc(O)c(O)c1)c1cccc(S(=O)(=O)N2CCCC2)c1	.	.	2	-22	1	1	.	i
Cc1ccn(CC(=O)N2CCCC(C(=O)c3cccc4ccccc34)C2)n1 (stereo unspecified)	-7	-14	.	-13	-2	-4	-8	i
CCOc1ccccc1NC(=O)c1ccc2c(c1)C(=O)N(CC1CCCO1)C2=O (stereo unspecified)	-9	1	-8	-19	1	1	10	i
COc1ccc(N(C(C)C(=O)N/N=C/c2ccc(OC(C)C)cc2)S(C)(=O)=O)cc1 (stereo unspecified)	.	2	-3	-20	7	4	0	i
Cc1[nH]c2ccccc2c1C(=O)C(=O)N1CCOCC1	12	-7	0	-13	2	7	2	i
CCn1c(=O)c(C(=O)CN(C)CC(=O)Nc2cccc(F)c2)c(N)n(Cc2ccccc2)c1=O	1	.	-7	-8	-2	-1	.	.
CC12C(=O)N(c3cccc(OC(=O)c4ccco4)c3)C(=O)C1C1c3ccccc3C2c2ccccc21 (stereo unspecified)	-9	-6	-7	-26	-1	-2	-6	i
CC(Oc1ccc(Cl)cc1Cl)C(=O)NCCN1CCOCC1 (stereo unspecified)	.	6	7	.	-1	4	3	i
O=C(NC(=S)N1CCCCCC1)c1ccccc1	-25	7	-9	-25	3	6	-8	i
Cc1nn(-c2ccccc2)c2[nH]c(=O)c(CNc3ccc4c(c3)OCCO4)cc12	-5	13	-6	-39	-3	-7	-4	i
COc1cccc(N2CC(=O)N(NC(=O)c3sc4nc(C)cc(C)c4c3N)CC2=O)c1	-15	-2	-1	.	1	-3	3	i
CCOC1=C2CN(S(=O)(=O)c3ccccc3)[C@H](c3ccccc3)C[C@H]2n2c(=O)n(-c3ccccc3)c(=O)n2C1	4	.	.	-16	-5	-4	.	.
N#C/C(=C\C1=C(N2CCOCC2)C(=C/c2cccc([N+](=O)[O-])c2)/CC1)C(=O)Nc1ccccc1F	9	10	9	.	15	68	6	.
O=C(c1ccco1)N1CCN(CC(=O)N2CCCc3c2c(=O)oc2ccc(O)cc32)CC1	-27	2	-18	.	.	.	3	i
CCc1cc2ccc(OC)cc2nc1SCC(=O)N1CCN(C(=O)c2ccco2)CC1	20	-3	0	-3	-5	-8	-2	i
COc1ccccc1-c1ccc(=O)n(CC(=O)NCc2ccc3c(c2)OCO3)n1	-90	-12	2	-2	5	0	0	i
Cc1ccc(NC(=O)CCNC(=O)N2CC(=O)Nc3ccccc32)cc1Cl	5	.	.	-5	0	-2	.	.
CCOC(=O)c1ccccc1NC(=O)c1c(N)n(C)c(=O)[nH]c1=O	-30	.	-5	.	.	.	.	i
COc1ccc(CNS(=O)(=O)c2ccc(-n3cccn3)cc2)cc1	8	3	-1	-9	2	6	-9	i
COc1cc(C(=O)Oc2ccccc2/C=N/NC(=O)c2ccc(Cl)cc2Cl)cc(OC)c1OC	.	-1	22	2	-2	-3	3	i
Cc1ccccc1/C=C1\C(=O)Nc2ccc(F)cc21	-23	2	8	-8	5	0	-8	i
O=C(Nc1ccc(F)c(F)c1)C1CCCN(S(=O)(=O)c2cnc[nH]2)C1 (stereo unspecified)	.	-2	-1	-11	-1	-1	-4	i
O=C(/C=C/c1ccnc2ccccc12)c1cccs1	-33	-4	86*	.	0	-6	-6	i
CCN(CC)CCNC(=O)C1c2ccccc2C(=O)N(C)C1c1cn(C)c2ccccc12 (stereo unspecified)	.	1	16	0	-2	0	-7	i
CCCc1nnc(NC(=O)CCC(=O)N2CCN(Cc3ccc(Cl)cc3)CC2)s1	3	20	-11	16	0	-21	-6	i
CCOC(=O)N1CCN(C(=O)c2ccc(CNS(=O)(=O)c3ccc(C)cc3)cc2)CC1	-50	5	10	-12	-9	-3	-1	i
Cc1ccc(C)c2c1CCC(=Cc1ccccc1[N+](=O)[O-])C2=O	16	.	.	-20	2	-2	.	.
O=C(NCC1CCS(=O)(=O)C1)Oc1ccccc1 (stereo unspecified)	-65	-2	-9	1	0	1	-4	i
CCCn1c(SCC(=O)NC2CC2)nnc1-c1ccccn1	-1	15	8	-18	-1	5	2	i
CCOc1ccc(N2C(=O)/C(=C/c3ccccc3OCC(=O)OC)N(CC(=O)OC)C2=S)cc1	9	-9	.	.	-1	0	-20	i
